Screening results as filed in PubChem BioAssay.
Vif A3G: inhibitors of Vif binding to APOBEC3G peptide, primary screen, biochemical, TR-FRET, GST-Vif 1-94, biotin-A3G peptide, dose response retest (AID 1117319) | TR-FRET GST-Vif / biotin-A3G peptide binding; higher % means a stronger effect; test concentration not given here; strong numbers were not always called active | inhibition, %, or IC50 in µM where a hit was titrated | 260,000 compounds, 0.57% hits;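 active = above the screen mean plus three standard deviations and confirmed in dose response; inconclusive = results disagree or hit not tested in dose response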;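 note: Vif residues 1-94 fused to GST binding biotinylated APOBEC3G peptide 110-148; 0% = full assay without inhibitor and 100% = GST in place of GST-Vif; retest series ran down from 100 µM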
T cruzi repl: T. cruzi replication inhibition | T. cruzi beta-gal in NIH3T3, luminescence, 90 h | inhibition, % (test concentration not listed) | 300,000 compounds, 1.4% hits | AID 1885;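 active = mean inhibition across valid replicates above about 55%, limit read from the data; inconclusive = mean below that limit but half or more replicates reach it; inactive = mean below it, under half of replicates reach it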;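 note: signal also drops with host cell toxicity which is not excluded here; 0% = plate median of DMSO wells and 100% = zero luminescence signal; higher percent means less beta-gal luminescence so fewer parasites; stock transfer was 50 nL into about 50 µL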
AF4-AF9 inh: inhibitors of human MLL-AF4/AF9 interaction | AlphaScreen, biotin-AF4 peptide binding to FLAG-AF9 | P42568 | inhibition, % at 10 µM | 350,000 compounds, 0.47% hits;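 active = every replicate reaching a set inhibition limit, whatever the replicate mean, cut at about 25% in these data; inconclusive = mean inhibition reaches that limit but some replicates miss it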;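 note: 0% = plate neutral control median and 100% = total signal loss; the record names both 10 and 1 µM as test concentration; the first replicate is given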
Target sequence (P42568 whole entry, looked up): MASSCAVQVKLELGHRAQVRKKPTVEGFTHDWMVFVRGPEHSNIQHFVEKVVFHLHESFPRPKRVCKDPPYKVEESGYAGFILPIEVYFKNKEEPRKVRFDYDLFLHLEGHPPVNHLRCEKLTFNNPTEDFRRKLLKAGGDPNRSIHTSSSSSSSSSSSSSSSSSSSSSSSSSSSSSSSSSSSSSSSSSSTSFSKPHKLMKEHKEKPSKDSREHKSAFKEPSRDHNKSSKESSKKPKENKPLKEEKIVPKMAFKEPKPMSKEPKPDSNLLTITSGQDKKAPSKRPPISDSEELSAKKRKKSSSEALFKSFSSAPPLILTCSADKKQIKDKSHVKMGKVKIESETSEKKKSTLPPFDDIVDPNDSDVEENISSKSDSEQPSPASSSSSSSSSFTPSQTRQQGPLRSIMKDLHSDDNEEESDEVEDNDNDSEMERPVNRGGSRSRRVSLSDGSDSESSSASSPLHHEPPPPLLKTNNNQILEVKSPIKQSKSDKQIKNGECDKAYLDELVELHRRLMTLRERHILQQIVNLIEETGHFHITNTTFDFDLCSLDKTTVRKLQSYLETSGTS
RanGTP-Impb inh: inhibitors of RanGTP-importin-beta interaction, primary screen, biochemical, FRET, CFP-Ran, YFP-importin-beta, homogeneous; AID 2216; 300,000 compounds, 1.1% hits; cell-free CFP-Ran/YFP-importin-beta FRET ratio; inhibition, % (concentration not given with the values);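 active = most replicates above 15%; inconclusive = exactly half above 15%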;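 note: 0% = DMSO wells and 100% = Ran loaded with GDP instead of GTP; wells of about 40 µL received 100 nL stock; the first replicate is given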
Calb FLC: affects C. albicans growth with fluconazole; C. albicans CaCi-2 (fluconazole-resistant clinical isolate) + fluconazole, Alamar Blue growth, 48 h; growth inhibition, % (concentration not given with the values); 300,000 compounds, 0.57% hits;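 active = most replicates above 75%; inconclusive = exactly half above 75%; inactive = most below 75%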;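 note: all wells also contain fluconazole at 8 µg/ml as a sub-toxic cotreatment; 0% = median of DMSO wells and 100% = median of geldanamycin control wells; wells of about 8 µL received 7.5 nL stock; the first replicate is given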
Beta cell apopt: blocks beta cell apoptosis. INS-1E cytokine-induced death, ATP luminescence, 48 h; percent of positive-control rescue, neutral wells zero. protection from apoptosis, % (concentration not given with the values). 300,000 compounds, 0.8% hits. AID 435005;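 active = all replicates at 75% or more, or half of them and the mean; inconclusive = half reach 75% but not the mean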;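 note: 0% = cytokine-treated negative control wells and 100% = positive control rescue; higher means more ATP so stronger rescue from cytokine killing; wells of about 40 µL received 100 nL stock; the first replicate is given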
A1 inh: inhibitors of the anti-apoptotic protein A1, read as caspase activation | MEF A1-2A-BIM cells, Caspase-Glo 3/7 luminescence, 3 h; percent of clofoctol response, vehicle zero | 330,000 compounds, 0.066% hits | caspase activation, % (test concentration not listed);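 active = over half of replicate activation scores above 10%, or exactly half above 10 with the replicate mean above 10; inconclusive = replicate mean below 10 yet half the replicates above 10; inactive = over half of replicates below 10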;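 note: wells of about 30 µL received 50 nL stock; many hits fall short of the cut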
Ecoli rRNA inh: inhibitors of bacterial rRNA selective over humanized ribosomes; E. coli WT GFP vs humanized-ribosome RFP mutants, fluorescence, 24 h; active compounds read low; DMSO median 0, no signal -100; GFP signal change (wild-type ribosome), % (concentration not given with the values); 350,000 compounds, 1.6% hits;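 active = significant combined selectivity score with lowered wild-type GFP, culture density cut under 30%, mutant RFP and density less affected; inactive = any of these conditions unmet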; note: one replicate is shown; some compounds called inactive have numbers as strong as hits
Ecoli rRNA inh OD600: also measured in Ecoli rRNA inh; calls as there; OD600 change, %; measured here: OD600 growth;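 optical density of the mix in the first replicate; 0 = DMSO median and -100 = no signal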
Ecoli rRNA inh RFP: further read-out of Ecoli rRNA inh, marked with its call; RFP signal change, %; measured here: RFP humanized mutant strains;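 first replicate; 0 = DMSO median and -100 = no signal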
An asterisk follows results filed as active; ? = inconclusive; · = not tested or not shown; & = joins results of further samples.

SMILES	Vif A3G	T cruzi repl	AF4-AF9 inh	RanGTP-Impb inh	Calb FLC	Beta cell apopt	A1 inh	Ecoli rRNA inh	Ecoli rRNA inh OD600	Ecoli rRNA inh RFP
COCCN1CC(=O)N2C(c3cccc(C)c3)c3[nH]c4ccccc4c3C[C@H]2C1=O (stereo partly specified)	-1.4%	-0.2	1.1	-0.4	4.9	-2.7	0.6	4.5	5.0	-1.0
COC(=O)c1ccccc1NC(=O)c1nc2nc(C)cc(C)n2n1	3.4%	-1.1	·	-2.3	2.3	·	-1.1	·	·	·
COc1ccc(-c2nnn(CC(=O)N(CCO)C(C(=O)NC3CCCC3)c3ccc(F)cc3)n2)cc1 (stereo unspecified)	-1.6%	2.7	·	-3.0	3.2	·	-1.1	·	·	·
Cn1ccc(C(=O)NC(=S)Nc2ccc([N+](=O)[O-])cc2O)n1	·	·	-1.3	·	2.8	2.9	-0.5	-9.6	-0.9	1.0
CC(C)NC(=S)NC(c1ccccc1)(c1ccccc1)c1ccccc1	-3.4%	54.7*	-6.1	8.4	-8.0	111.6*	-0.5	-14.3	-15.3	-0.9
CC(Nc1n[nH]c(=S)[nH]c1=O)C(=O)OCc1ccccc1 (stereo unspecified)	-5.0%	-8.4	·	-4.5	-10.3	-7.2	-0.6	·	·	·
CCOC(=O)N1CCN(S(=O)(=O)c2ccc3c(c2)CCN3C(=O)C2CCC2)CC1	29.1%	6.8	·	-2.1	-3.8	1.2	0.7	·	·	·
Cc1nnc(NC(=O)CSc2nc(C3CCCCC3)nc3ccccc23)s1	-0.6%	12.5	-49.9	-1.1	-15.1	-2.7	0.9	11.8	5.0	1.7
Cc1ccc(-n2nc3ccc(N)cc3n2)cc1Cl	·	-10.1	-9.3	5.3	15.6	4.5	-4.7	-2.0	3.5	-2.4
Cc1cc(C)c2c(=O)[nH]c(SCC(=O)c3ccc(C)c(C)c3)nc2n1	2.2%	-10.0	-1.9	?	4.0	-3.4	-0.2	0.3	1.8	1.8
CCOC(=O)c1ccc(NC(=S)NC(=O)c2cncc(Br)c2)cc1	?	-3.8	-1.1	-0.6	1.9	-9.5	-0.3	9.1	12.0	2.1
COc1ccc(NC(=O)c2cccc(NS(=O)(=O)c3ccccc3)c2)cc1	·	4.8	6.0	0.2	-1.6	-10.1	-1.6	0.9	9.1	3.5
Cc1cc(C)n2ncc(/C(N)=N/OC(=O)c3ccccc3F)c2n1	-6.6%	-3.3	1.6	-0.4	-2.1	-6.2	-8.3	·	·	·
Cc1ccc(C(=O)NNC(=O)c2ccco2)cc1	7.0%	11.5	·	?	11.9	0.1	-0.5	·	·	·
CCOC(=O)Nc1ccc2c(c1)OCO2	-0.4%	-2.2	·	-0.3	13.4	4.2	-2.2	·	·	·
CC/C(=N/Nc1cccc(C)c1)c1cnnc(SC)n1	0.3%	-3.3	·	-12.1	0.8	11.5	0.7	·	·	·
COc1ccc(C(CNC(=O)c2ccc(S(=O)(=O)N(C)C)cc2)N2CCCCC2)cc1 (stereo unspecified)	-5.6%	-0.4	-0.5	?	-3.1	-2.4	1.1	-3.2	-0.4	-5.6
C[C@H](CO)N1C[C@H](C)[C@@H](CN(C)Cc2ccncc2)Oc2c(NS(=O)(=O)c3ccc(F)cc3)cccc2C1=O	-1.1%	·	0.2&-0.1	·	·	-4.5	-0.2	-0.2&14.1	0.3&0.8	0.4&3.2
c1ccc(-c2noc(CN3CCc4sccc4C3)n2)cc1	-6.5%	13.5	-1.1	-3.3	1.7	-0.7	0.2	-12.3	3.6	4.4
COc1cc(/C=C(\C#N)C(=O)N2CCOCC2)cc(Br)c1O	-3.9%	-4.8	2.7	-1.0	5.1	-7.6	0.1	-3.2	-1.5	-2.4
Cc1ccc(-n2c3c(c(=O)[nH]c2=O)C(NS(=O)(=O)c2ccc(C)cc2)(C(F)(F)F)C(=O)N3)cc1 (stereo unspecified)	-1.9%	-8.0	·	1.4	-0.3	3.2	-0.2	·	·	·
COc1cc(OC)cc(C(=O)Nc2ccc(-c3nc4ccccc4o3)cc2)c1	?	60.3*	·	-0.4	-4.6	35.3	-1.1	·	·	·
CCN(C(=O)C1CCCO1)c1ccccc1 (stereo unspecified)	·	-13.2	0.4	0.0	0.2	·	0.0	16.2	7.9	0.5
CC(Oc1ccccc1F)C(=O)NN (stereo unspecified)	10.9%	-20.0	5.4	2.1	-8.2	-3.9	0.4	8.5	-7.6	-6.9
Cn1c(=O)n(C)c2cc(S(=O)(=O)Nc3ccc(F)cc3)ccc21	0.9%	-8.3	0.8	1.7	1.2	3.5	-0.6	8.0	13.5	-2.9
CCOC(=O)c1sc2nc(C(C)C)c3c(c2c1N)CCC3	·	2.2	·	?	3.4	5.4	-0.4	·	·	·
Cc1ccc(C)c(CN2CCC(CNC(=O)Nc3ccc(F)c(Cl)c3)CC2)c1	-9.8%	47.5	10.8	-1.6	-3.5	14.5	-1.0	-52.8	-74.0	7.1
CC(=O)N(Cc1ccc(Cl)cc1)c1cnccn1	-9.4%	-1.7	-0.5	2.3	-15.1	1.2	-0.9	6.3	0.9	-10.7
CCCNC(=O)N1CCC(C(=O)c2ccc(F)cc2)CC1	-2.7%	-10.4	·	1.7	6.2	-3.6	1.0	·	·	·
O=C(CCCCC(=O)Nc1ccccc1)Nc1ccccc1	·	-16.9	-1.2	5.0	-3.4	-0.4	-2.4	6.2	12.2	-2.3
CN(Cc1ccccc1)C(=O)COC(=O)c1cc(Cl)nc(Cl)c1	11.7%	-1.6	-2.0	-3.5	44.9	-10.4	0.9	-0.4	-4.8	4.4
COC(=O)c1c(C)c(C)nc(N)c1C#N	-3.2%	-4.2	·	6.0	8.5	2.2	-0.7	·	·	·
O=[N+]([O-])c1cccc(S(=O)(=O)NCCCN2CCOCC2)c1	30.5%	13.8	0.3	-0.5	-26.8	·	1.1	·	·	·
Cc1cc(SCC(=O)Nc2ccccc2C)nc(C)n1	71.9%	0.9	·	-1.0	-7.1	-5.2	?	·	·	·
O=C(NCCS(=O)(=O)N1CCc2ccccc2C1)c1ccccc1	-0.8%	1.2	-3.9	0.8	·	-4.2	0.1	-8.7	-9.7	-1.3
O=C(Nc1ccccn1)C1CCN(S(=O)(=O)c2ccc3c(c2)OCCO3)CC1	13.5%	·	-0.8	·	·	-2.7	-2.5	2.9	0.5	0.4
COC(=O)c1ccc([C@H]2CC(=O)O2)cc1	·	25.5	-0.2	1.2	-6.3	·	1.3	14.6	13.4	3.1
Cc1nc2ccc([N+](=O)[O-])cc2c(=O)n1Cc1ccc(F)cc1	0.3%	8.8	-5.7	-0.1	6.6	0.4	1.5	3.2	6.0	1.1
CC(NC(=O)c1ccco1)C(c1cccs1)N1CCOCC1 (stereo unspecified)	-0.8%	-6.0	-0.9	-3.6	1.4	-4.7	0.9	2.4	11.1	0.6
CCCOc1ccc(OCCSc2ncccn2)cc1	?	14.3	·	1.4	-14.1	-2.0	-6.9	·	·	·
Cc1oc(-c2cccc(Cl)c2)nc1CN1CCC(C(=O)NCCCN2CC(C)CC(C)C2)CC1 (stereo unspecified)	·	?	·	0.4	-12.5	9.0	0.6	·	·	·
COc1ccc2cc(Br)ccc2c1CC(=O)NCC1CCCO1 (stereo unspecified)	-6.8%	12.9	-0.4	-7.7	7.4	1.4	1.2	-7.6	-9.3	1.9
COc1ccc(/C=C/C(=O)N2CCN(S(=O)(=O)/C=C/c3ccccc3)CC2)cc1OC	-9.1%	4.4	·	-0.5	18.7	·	-0.9	·	·	·
O=C(NCc1ccco1)C1CCN(S(=O)(=O)c2cccc([N+](=O)[O-])c2)CC1	·	4.1	-0.1	0.3	-11.7	-0.3	-0.2	-2.2	17.3	-1.9
CCCOc1c(OC)cccc1C1CC(=O)Nc2cc3c(cc21)OCCO3 (stereo unspecified)	25.1%	-3.3	·	7.3	-4.9	2.2	0.7	·	·	·

Sorted by molecular weight (lowest first): three of the compounds above.
SMILES	Vif A3G	T cruzi repl	AF4-AF9 inh	RanGTP-Impb inh	Calb FLC	Beta cell apopt	A1 inh	Ecoli rRNA inh	Ecoli rRNA inh OD600	Ecoli rRNA inh RFP
CCOC(=O)c1sc2nc(C(C)C)c3c(c2c1N)CCC3	·	2.2	·	?	3.4	5.4	-0.4	·	·	·
Cc1cc(C)c2c(=O)[nH]c(SCC(=O)c3ccc(C)c(C)c3)nc2n1	2.2%	-10.0	-1.9	?	4.0	-3.4	-0.2	0.3	1.8	1.8
CCOC(=O)N1CCN(S(=O)(=O)c2ccc3c(c2)CCN3C(=O)C2CCC2)CC1	29.1%	6.8	·	-2.1	-3.8	1.2	0.7	·	·	·

(continued)
SMILES	Vif A3G	T cruzi repl	AF4-AF9 inh	RanGTP-Impb inh	Calb FLC	Beta cell apopt	A1 inh	Ecoli rRNA inh	Ecoli rRNA inh OD600	Ecoli rRNA inh RFP
CCOC(=O)CN(C)C(=O)C1CCCN1C(=O)OC(C)(C)C (stereo unspecified)	·	-20.0	-0.6	2.2	-5.0	4.0	-0.5	12.0	19.0	21.3
O=C(COC(=O)c1ccc([N+](=O)[O-])s1)NC(=O)NCc1ccccc1	18.4%	49.6	-1.2	2.7	-1.1	2.5	0.2	·	·	·
O=C(NCc1ccncc1)C(=O)NC1CC1	8.2%	-8.6	-1.8	-1.5	-1.9	8.7	0.2	10.6	7.9	3.4
O=C(C1Cc2ccccc2O1)N1CCCCC1 (stereo unspecified)	-0.8%	-2.4	·	?	-3.7	-1.6	2.2	·	·	·
Oc1ccc(/C=N/Nc2ccnc3cc(Cl)ccc23)cc1O	21.0%	-14.7	14.5	-4.4	100.1*	-13.4	0.4	-25.8	-11.1	-12.2
CCOC(=O)C1=C(O)/C(=C/c2ccc(OCC(=O)Nc3ccc(C)cc3)cc2)N=C1C	-4.5%	-20.1	0.3	70.2*	18.9	-1.5	1.9	8.6	12.5	4.6
CC(OC(=O)CSc1ccc([N+](=O)[O-])cc1)C(=O)NC1CC1 (stereo unspecified)	-12.2%	·	-0.7	·	·	-0.6	1.6	6.0	9.6	2.2
CCN(CC)C(=O)CN1C(=O)C2(NC(=O)c3ccccc3N2)c2ccccc21 (stereo unspecified)	65.4%	-11.6	-5.0	0.7	-2.4	3.6	-0.3	19.0	18.2	-0.4
COc1cccc(OCC(O)CN2CCOCC2)c1 (stereo unspecified)	-3.9%	-8.2	·	10.1	-2.7	-4.4	0.2	·	·	·
NC(=O)C1(N2CCCCC2)CCN(C(=O)c2ccc(C#Cc3ccccc3)o2)CC1	2.2%	-1.2	·	5.8	-5.5	-3.9	0.6	·	·	·
COc1ccc(CNS(=O)(=O)c2ccc3c(c2)N(C)CCO3)cc1	7.3%	3.2	1.8	7.3	-1.8	0.8	-0.4	1.4	-4.7	0.0

The list is partial; rates above refer to the full screens.
